High-throughput results: PubChem BioAssay, National Center for Advancing Translational Sciences (NCATS)
VACV Venus inh: inhibitors of vaccinia virus (Venus reporter); Vaccinia virus Venus reporter expression, fluorescence; Potency, µM (top dose mostly 36.5 µM), for the others: top-dose activity change, negative = inhibition, most hits filed as inhibitors; actives 0.46% (n = 330,000); AID 720580; active means well fitted inhibition curve with a large enough effect; inconclusive means small, poorly fitted or top-dose-only effect; inactive means no such curve, though single readings can be large or run the other way; tested in A549 cells; note: nearly all actives have a fitted effect of over 30% in size; inactives centre near -10
Vaccinia mCherry: vaccinia inhibition (mCherry reporter); Vaccinia virus mCherry reporter infection, fluorescence; about a quarter of the inactives have no number; actives 0.63% (n = 310,000); Potency, µM (top dose mostly 36.5 µM), inactives show top-dose activity change, negative = inhibition, actives largely listed as inhibitors; active = well fitted inhibition curve with a large enough effect; inconclusive = small, poorly fitted or top-dose-only effect; inactive = no such curve, though single readings can be large or run the other way; tested in A549 cells; note: nearly all actives have a fitted effect of over 35% in size; inactives centre near -10
* hit, by the source's call; i = inactive; ? = inconclusive; . = not tested or not shown; & = joins results of further samples; [ ] = dose if it differs, or a comment. % is set by controls: 0 for no effect and ±100 for the full control effect; potency is the fitted concentration of half-maximal effect.

SMILES	VACV Venus inh	Vaccinia mCherry
COc1ccc(CCN2C(=O)NC(NS(=O)(=O)c3ccc(NC(C)=O)cc3)(C(F)(F)F)C2=O)cc1OC (stereo not drawn)	-5.8%&1.1%	-2.6%&-3.6%
O=c1cc(SCc2ccccc2)nc[nH]1	-18.4%	-11.2%
O=C(O)C(c1ccccc1)C1(O)CC2CCC1C2 (stereo not drawn)	-13.4%	-12.6%
Cc1cc(C)n(-c2nc3c(c(=O)[nH]c(=O)n3C)n2C)n1	-9.2%	.
COc1ccccc1-n1cnnc1SCC(=O)Nc1ncc(Cl)cc1Cl	-14.6%	i
CCOC(=O)C1C(=O)CC(C)(O)C(C(=O)OCC)C1c1cccc(OC)c1 (stereo not drawn)	2.6%	-2.6%
Cc1ccc(OCCSc2nc(-c3ccccc3C)nc3cc(=O)[nH]n23)cc1Cl	-4.4%	-17.4%
CCOc1ncccc1C(=O)NCCc1ccc(OC)cc1	-18.0%	13.2%
O=C(c1ccccc1Cl)N1CCCC(c2nc3c(nnn3Cc3ccc(F)cc3F)c(=O)[nH]2)C1 (stereo not drawn)	-2.3%	-3.5%
CC1CCN(C(=O)c2ccc(N3C(=O)c4ccccc4C3=O)cc2)CC1	-17.4%	-3.9%
O=[N+]([O-])c1cccc(CON=Cc2cc(Cl)ccc2O)c1	-23.0%	-11.4%
Cc1cccc(C(=O)OCC(=O)NC23CC4CC(CC(C4)C2)C3)c1O	-12.0%	i
CCC1CCCCN1C(=O)CSc1nnc(-c2ccc(Cl)cc2)o1 (stereo not drawn)	8.1%	-5.3%
CCOC(=O)/C=C/C(=O)OCC(=O)N1CCN(C(=O)c2ccco2)CC1	-17.0%	-8.7%
CCCCC(=O)NNC(=S)NCc1ccccc1	-7.3%	-24.0%
CC(=O)c1cccc(NC(=O)c2cc(C(C)C)on2)c1	-7.8%	2.7%
Cn1c(SCC(=O)Nc2ccc(N3CCOCC3)cc2)nnc1-c1ccccc1F	-5.9%	-19.4%
O=C(NC1CC1)c1cccc(Br)c1	-0.4%	-10.7%
COc1ccc(OC)c(NC(=O)Nc2cccc3ccccc23)c1	-19.1%	-20.5%
CCC1CN(C(=O)N2CCC(C(=O)NCc3cccc(OC)c3OC)CC2)c2cc(C)ccc2O1 (stereo not drawn)	-3.4%&-10.8%	-4.1%
COc1ccc(S(=O)(=O)Nc2cccc3c2O[C@H](CN(C)Cc2ccc(-c4ccccc4)cc2)[C@@H](C)CN([C@H](C)CO)C3=O)cc1	?	-23.3%
CC(C)(O)c1nnn(-c2ccccc2)c1C(F)(F)F	-3.1%	-9.3%
CCOc1ccccc1Oc1c(C)oc2c(CN3CCN(C)CC3)c(O)ccc2c1=O	-2.3%	-7.7%
CCOP(=O)(OCC)C(NC(=O)c1ccc(OC)cc1)C(Cl)(Cl)Cl (stereo not drawn)	-10.8%	i
O=S(=O)(Nc1ncccn1)c1ccc(NC(=S)NCCc2ccc(Cl)cc2)cc1	-21.0%	i

The closing five records of the section above come first, to join the parts.
SMILES	VACV Venus inh	Vaccinia mCherry
COc1ccc(S(=O)(=O)Nc2cccc3c2O[C@H](CN(C)Cc2ccc(-c4ccccc4)cc2)[C@@H](C)CN([C@H](C)CO)C3=O)cc1	?	-23.3%
CC(C)(O)c1nnn(-c2ccccc2)c1C(F)(F)F	-3.1%	-9.3%
CCOc1ccccc1Oc1c(C)oc2c(CN3CCN(C)CC3)c(O)ccc2c1=O	-2.3%	-7.7%
CCOP(=O)(OCC)C(NC(=O)c1ccc(OC)cc1)C(Cl)(Cl)Cl (stereo not drawn)	-10.8%	i
O=S(=O)(Nc1ncccn1)c1ccc(NC(=S)NCCc2ccc(Cl)cc2)cc1	-21.0%	i
COc1cccc(NC(=O)Nc2nc(-c3ccc(OC)c(OC)c3)cs2)c1	14.1µM*	?
N#CNC(=Nc1ccccc1F)SCc1ccc(C(=O)O)cc1	-4.2%	i
O=[N+]([O-])c1ccccc1-c1ccc(C(=S)N2CCCC2)o1	-2.1%	?
CSc1nc(Cl)cc(Nc2ccccc2N)n1	?	?
COc1ccccc1C(=O)Nc1ccc(-c2nc3cc(C)cc(C)c3o2)cc1	2.8%	-4.8%
Cc1ccc(OCc2nnc(N)s2)cc1	-11.1%	i
Cc1cc(C)nc(NC(=O)c2c(-c3c(Cl)cccc3Cl)noc2C)n1	-24.7%	.
COC(=O)[C@@H]1C[C@@H](NC(=O)c2cccc3c(C)c(C)[nH]c23)CN1Cc1cccc2ccccc12	16.4%	6.7%
O=S(=O)(Cc1ccc(Cl)cc1)N1CCCC1	-11.1%	-5.0%
COc1cc2cc(C(N)=O)c(N)nc2cc1OC	-2.9%	-12.2%
O=C(c1cccc(Cl)c1)N(Cc1ccco1)Cc1ccccc1Cl	-10.8%	-11.0%
Cc1cc(Br)cc2c1N(Cc1ccccc1OC(C)C)C(=O)C2=O	-16.6%	i
S=c1[nH]nc(-c2ccccn2)n1/N=C/c1ccc(-c2ccccc2Cl)o1	-6.9%	-17.3%
CCc1noc(C)c1C(=O)N1CCCC(N2CCN(c3ccc(F)cc3)CC2)C1 (stereo not drawn)	-21.1%	-15.2%
COC(=O)[C@H]1C[C@H](OC(=O)NCc2ccccc2F)[C@@]2(O)CN(S(=O)(=O)c3ccc(C)cc3)CC2[C@H]1C(=O)OC (stereo partly drawn)	-4.9%	0.8%
Cc1nc(NCc2ccco2)c2oc3ccccc3c2n1	-28.9%	.
COc1ccc(-c2ccc(F)cc2)cc1[C@H]1[C@H]2C=CC[C@@H](C)[C@@H]2C(=O)N1Cc1ccccc1	-18.2%	i
O=C(CSc1ccc2nnc(-c3ccccn3)n2n1)Nc1ccccc1	0.7%	-5.4%
O=C(CCC(=O)Nc1ccccc1Cl)NNC(=O)NC1CCCCC1	-5.6%	1.5%
Cc1ccc(NS(=O)(=O)c2cccc(C(=O)NCC(c3ccco3)N3CCCCC3)c2)cc1 (stereo not drawn)	-23.9%	-11.4%
CC(=O)Nc1ccc(NC(=O)COC(=O)c2cnccn2)cc1	-8.4%	-6.6%
O=C(Nc1ccc(S(=O)(=O)NC2=NCCCCC2)cc1)c1cc(F)c(F)cc1Cl	-22.0%	?
CC(C)N1C(=O)c2ccccc2NC(=O)C1C(=O)NC1CC1 (stereo not drawn)	2.0%	-8.5%
Cc1cccc(C2c3[nH]c4ccccc4c3CCN2Cc2cccn2-c2ncccn2)c1 (stereo not drawn)	4.2%	i
CCOC(=O)CSc1nnc(N)s1	-7.8%	-9.4%[1.46 µM]

Next section; it opens with the three that closed the last part.
SMILES	VACV Venus inh	Vaccinia mCherry
CC(C)N1C(=O)c2ccccc2NC(=O)C1C(=O)NC1CC1 (stereo not drawn)	2.0%	-8.5%
Cc1cccc(C2c3[nH]c4ccccc4c3CCN2Cc2cccn2-c2ncccn2)c1 (stereo not drawn)	4.2%	i
CCOC(=O)CSc1nnc(N)s1	-7.8%	-9.4%[1.46 µM]
Cc1nnc(SCC(=O)Nc2ccc3c(c2)OCO3)o1	2.4%	-10.4%
O=c1ccc2nc3ccccc3sc-2c1	?	-27.9%
COc1cccc(NC(=O)CN(C)CC(=O)NCc2ccc(F)cc2)c1	-5.2%	i
O=C1CCC(=O)N1OCCCCOc1ccccc1	-5.9%	.
Cc1ccc(C(=O)N/C(=C\c2cccs2)C(=O)NCC2CCCO2)cc1C (stereo not drawn)	-11.6%	i
Cc1ccccc1CS(=O)(=O)Cc1ccc(C(=O)NCc2ccc(F)cc2)o1	-11.8%	-13.6%
Cc1ccccc1NC(=O)C1CCN(S(=O)(=O)c2cccc3nonc23)CC1	0.4%&-2.0%	-3.7%&-0.7%
Cc1cccc(-n2c3nc(=O)[nH]c(=O)c-3cc3ccc(Cl)cc32)c1C	-19.5%	-19.8%
Cc1oc2cc3oc(=O)c(CC(=O)N4CCCCC4)c(C)c3cc2c1C	-5.6%	-1.7%
CC(OC(=O)/C=C/c1cccc(C(F)(F)F)c1)C(=O)NC1CCCCC1C (stereo not drawn)	9.6%	-15.1%
Cc1cc(NC(=O)CSCC(=O)N(C)Cc2cccc(Cl)c2)no1	-6.7%	i
CSc1nc2nccc(-c3ccc(Cl)cc3)n2n1	-22.3%	.
CCOC(=O)N1CCC(N2C(=O)c3ccccc3C2Nc2cc(Cl)c(OC)cc2OC)CC1 (stereo not drawn)	-0.3%	?
Cc1cc(=O)[nH]c2c1cnn2Cc1ccccc1	-7.4%	.
O=C(N=Nc1c(O)[nH]c2ccccc12)c1ccco1	-7.5%	-11.5%
Clc1cccc(Cc2c(-c3cccc(Br)c3)nc3ccc(Cl)cn23)c1	-1.9%	i
O=C(NC(c1ccccc1)c1ccsc1)C1CCN(CCOc2ccc(Cl)cc2Cl)CC1 (stereo not drawn)	-1.1%	2.3%
CC(C)Nc1nnc(SCC(=O)/C=C2\N(C)c3ccccc3C2(C)C)s1	-15.2%	-22.5%
CCCC(=O)C1=C(c2cccc(OC)c2)N(C(=O)CCC)n2c(C)nnc2S1	-24.1%	?
CCCC[C@@H]1CNCCN1CCc1cccc2ccccc12	?	-23.7%
O=c1[nH]nc(-c2ccc(F)cc2)cc1Cc1cccs1	-9.7%	-12.3%
COc1cccc(CNC(=O)CCn2ccc3cc(S(=O)(=O)N4CCCC4)ccc32)c1	-10.2%	-14.1%
CCc1ccc(/C=C/C(=O)c2ccc(S(=O)(=O)N(C)C)cc2)cc1	-6.2%	-13.5%
C[C@H](CO)N1C[C@H](C)[C@@H](CN(C)C(=O)c2ccc3ccn(C)c3c2)OCc2cn(nn2)CCCC1=O	-2.0%	-6.3%
O=C(CN1CCN(S(=O)(=O)c2ccc(Br)cc2)CC1)N/N=C/c1cccnc1	-9.8%	-17.4%

Entries of single compounds as entered above. Order of values: VACV Venus inh, Vaccinia mCherry
Cc1cccc(-n2c3nc(=O)[nH]c(=O)c-3cc3ccc(Cl)cc32)c1C across the screens: -19.5%, -19.8%
Cc1ccccc1NC(=O)C1CCN(S(=O)(=O)c2cccc3nonc23)CC1 across the screens: 0.4%&-2.0%, -3.7%&-0.7%

(more compounds)
SMILES	VACV Venus inh	Vaccinia mCherry
CN(C(=O)c1ccc2c(c1)OCO2)C1(C(=O)NC2CCCC2)CCCCC1	-0.1%	?
Cc1ccc(C)c(S(=O)(=O)Nc2cc3c4c(c2)CC(=O)N4CCC3)c1	-21.5%	-2.8%
CC1CCN(C(=O)CSc2nnc(Cn3c(=O)sc4ccccc43)n2C)CC1	2.1%	-7.2%
CCC(C)(C)NC(=O)C(c1ccc(C)cc1)N(Cc1cccnc1)C(=O)c1csnn1 (stereo not drawn)	-4.9%	-9.8%
COC(=O)C1CCN(Cc2ccc3c(c2)CN(C(=O)c2ccc(-n4cnnn4)cc2)CCO3)CC1	2.2%	5.3%
COC(=O)CCc1ccc(O)cc1	2.6%	11.5%
O=C(N/N=C/CCc1ccccc1)c1ccccc1	-2.0%	5.7%
COC(=O)c1ccc(OCC(O)CNC2CCCC2)cc1 (stereo not drawn)	-1.3%	-7.9%
Cc1ccc(NS(=O)(=O)c2ccc(C(=O)NCCCN3CCOCC3)cc2)cc1	-14.6%	-15.7%
Cc1ccc(S(=O)(=O)c2nc(NN(C)C)sc2Cl)cc1	-13.3%	-23.7%
Cc1cc(NC(=O)c2cc(-c3cccc(Cl)c3)on2)no1	-8.3%	-20.9%
NC(=O)c1ccc(N=Cc2c(O)ccc3ccccc23)cc1	-26.2%	-27.6%
CCN(CC)c1ccc(/C=C/c2ccccn2)cc1	.	0.8%
Cc1noc(C)c1CSc1nnc(-c2ccncc2)n1-c1ccc(Cl)c(Cl)c1	-21.7%	.
Cc1cc2ccccc2n1CCNC(=O)COc1ccccc1	48.7%[activator]	-22.4%
CN1CCOc2cc(S(=O)(=O)NCc3ccc(S(N)(=O)=O)cc3)ccc21	-4.7%	-15.2%
CCN(CC)C(=O)C1CCN(C(=O)c2cnn(-c3ccccc3)c2-n2cccc2)CC1	1.7%	-6.7%
CCOC(=O)c1cccnc1SCC(=O)Nc1ccc(C)cc1	-2.4%	i
COc1cc(/C=N/NC(=O)c2ccncc2)ccc1OCc1cnc(Cl)s1	-14.0%	-14.0%
OCCCNc1ncnc2[nH]ncc12	-5.9%	i
CCCCn1c(N)c(N(CC(C)C)C(=O)CCNC(=O)c2ccccc2Cl)c(=O)[nH]c1=O	6.8%	-14.9%
CC(=O)N1c2ccc(S(=O)(=O)NCC3CCC(C(=O)Nc4ccccc4C)CC3)cc2CC1C (stereo not drawn)	-26.5%	i
CCOc1cccc(C(=O)N(Cc2ccc(CC)cc2)C2CCS(=O)(=O)C2)c1 (stereo not drawn)	-21.0%	-19.9%
O=c1cc(-c2ccsc2)oc2cc(-c3ccc4c(c3)OCO4)ccc12	?	-27.0%
O=C(NCCCN1CCCCCC1)c1ccc2c(Cl)c3c(nc2c1)CCCC3	?	i
SMILES	VACV Venus inh	Vaccinia mCherry
Cc1ccc(Nc2cc(=O)[nH]c(=O)[nH]2)c(C)c1	-3.8%	-22.1%
CCOc1ccccc1N1CC(C(=O)Nc2cccc(S(=O)(=O)N3CCCCC3)c2)CC1=O (stereo not drawn)	0.2%	-6.3%
O=C(NCCc1ccc(F)cc1)C(=O)NCC(c1cccs1)S(=O)(=O)c1ccccc1 (stereo not drawn)	-9.5%	-14.9%
Cc1ncc([N+](=O)[O-])n1CCOC(=O)NC(NCc1ccccc1)C(Cl)(Cl)Cl (stereo not drawn)	-20.7%	.
COc1cccc(-c2cc3c(c4c2ccn4C)C2CCC3C2)c1 (stereo not drawn)	7.4%	15.7%
COC(=O)c1cc(N2CCNCC2)nc2ccccc12	-0.6%	-10.8%
O=C(NCCCn1ccnc1)/C(=C/c1ccccc1)NC(=O)c1ccccc1	-7.4%	-13.8%
CC(=O)Nc1cc2c(cc1Br)OCCO2	-4.5%	.
CCOc1ccc(OCC)c(C2C(C#N)=C(N)N(c3cccnc3)C3=C2C(=O)CC(C)(C)C3)c1 (stereo not drawn)	-14.5%	-5.0%
